PK Bst – Pyruvate Kinase; partly purified Bacillus stearothermophilus pyruvate kinase, luminescence ATP production; ribose 5-phosphate activator present at AC10; Potency, µM; 51,000 tested, 1.2% active; AID 361, 2006; in the data active means potency below about 11 µM; inconclusive means mostly about 12 µM to 25 µM; inactive means weaker than that;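 the screen sought inhibitors and activators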;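 also: potency is read from the fitted curve at half-maximal effect; scaled between full activation by ribose 5 phosphate and full inhibition by luteolin; about four in five hits inhibit and the cells do not say which; series up to 57 µM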
YjeE inh – qHTS Assay for Inhibitors of YjeE; tRNA threonylcarbamoyladenosine biosynthesis protein TsaE (Escherichia coli (strain …; purified YjeE, fluorescence polarisation of a bound ADP probe; Potency, µM; 71,000 tested, 0.05% active; active = well fitted falling curve; inconclusive = weaker or top-dose-only fall, or a rising curve; inactive = flat or poorly fitted curve;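 also: top concentration of the series not given in the record; excess ADP was the control for the full effect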
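Purified YjeE (10 uM) with BODIPY Texas Red-labeled ADP probe (2 uM); compounds pin-transferred, 15 min at room temperature. Binding inhibition read as decreased fluorescence polarization; ADP titration as control.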
* = called active by the depositor; i = inactive; ? = inconclusive; . = no result given.

PK Bst | YjeE inh | canonical_smiles
>57 | i | O=C(COC(=O)c1ccc2c(c1)OCO2)NCc1ccc(Cl)cc1
>57 | i | Cc1cc(NC(=O)CCC(=O)N(Cc2ccco2)C2(C(=O)NC3CCCCC3)CCN(C)CC2)no1
. | i | COC(=O)[C@H](Cc1ccccc1)NC(=O)[C@@]1(C)C[C@@H]1[C@@H](NC(=O)OCc1ccccc1)c1ccccc1
>57 | i | CCS(=O)(=O)c1ccc2oc(Nc3ccccc3C)nc2c1
>57 | i | O=C(CNS(=O)(=O)c1cccs1)N1CCN(c2ccccn2)CC1
>57 | i | COC(=O)C1=[N+]([O-])OC(C(=O)OC)C1c1c[nH]c2ccccc12 (stereo not given)
. | i | Cc1c(Cl)cccc1N(CC(=O)NC1CCCCC1)S(C)(=O)=O
. | i | Cc1cccc(CCN2CCC(C(=O)c3ccc(NS(C)(=O)=O)cc3)CC2)n1
>57 | i | CC(=O)n1nc(-c2ccco2)nc1N
>57 | i | CCn1c2ccccc2c2nnc(SCC(=O)N3CC(C)OC(C)C3)nc21 (stereo not given)
. | i | O=C(c1ccccc1)N1CCN(c2ccc(Cl)cc2)CC1
. | i | COc1ncc2nc(-c3ccc(F)cc3)c(=O)n(C[C@H]3CCCO3)c2n1
>57 | i | CCOC(=O)C1=C(N)OC2=C(C(=O)CC(C)(C)C2)C1c1cccnc1 (stereo not given)
>57 | i | CC(=O)c1c(C)[nH]c(C(=O)OCC(=O)Nc2cc(C)on2)c1C
>57 | i | Cc1ccc(NS(=O)(=O)c2ccc(C(=O)N3CCCN(C)CC3)cc2)cc1
. | i | CC(=O)NCCNc1ncnc2ccc(-c3cccc(NS(C)(=O)=O)c3)cc12
>11 | . | COc1ccc(Oc2nc3c(c(=O)n(C)c(=O)n3C)n2Cc2cccc(OC)c2)cc1
>57 | i | COc1ccc(NC(=O)CN2CCC(NC(=O)C3CCCCC3)CC2)cc1
. | i | O=C(O)CSc1nnc2c3ccccc3c3ccccc3c2n1
>57 | i | CC(Oc1ccccc1Cl)C(=O)N(Cc1ccco1)C1CCS(=O)(=O)C1 (stereo not given)
>57 | i | CCOc1ccccc1NC(=O)CSc1nnc2c(CC)c(C)nc(N)n12
. | i | CSc1cccc(NC(=O)CN(c2cc(C)ccc2C)S(C)(=O)=O)c1
. | i | Cc1cccc(-n2c(Cc3cc(=O)[nH]c(=O)[nH]3)nnc2SCC(=O)NCC2CCCO2)c1 (stereo not given)
. | i | Cc1ccccc1-c1cc(NCc2cccnc2)ncn1
>57 | i | CC12CCC(C(=O)Nc3cccnc3)(CC1=O)C2(C)C (stereo not given)
>57 | i | O=C1NCCN1Cc1ccccc1F
>57 | i | OCCn1c(SC2CCCCC2)nc2ccccc21
>57 | i | CCOC(=O)C1CCN(S(=O)(=O)c2c(C)n[nH]c2C)CC1
>57 | i | COc1ccc(N2CCN(c3ccc(N)cc3C#N)CC2)cc1
. | i | O=C(Cn1c(=O)oc2cc(S(=O)(=O)N3CCc4ccccc43)ccc21)NC1CCCC1

Remaining list, next part
PK Bst | YjeE inh | canonical_smiles
>26 | . | CCCCCn1c2nc3ccccc3nc2c2c(=O)n(CC(C)C)cnc21
>57 | i | Cc1onc(-c2ccccc2)c1C(=O)Nc1ccc2c(C)cc(=O)oc2c1
>57 | i | O=C(NCc1nnc(SC/C=C/c2ccccc2)o1)c1ccco1
>57 | i | Cc1ccc(C)c(NC(=O)CCN2CC(C)OC(C)C2)c1 (stereo not given)
. | i | C/C=C(/C)C#N
. | i | O=C(CC1Oc2ccccc2NC1=O)NCCCN1CCCC1=O (stereo not given)
. | i | Cc1ccccc1OCCN1C(=O)NC2(CCc3ccccc32)C1=O (stereo not given)
>57 | i | CCOc1ccc(Cc2nn[nH]n2)cc1
. | i | CC(=O)NC(CCS(C)(=O)=O)C(=O)Nc1c(C)cccc1C (stereo not given)
>57 | i | O=C(Oc1ccc2c(c1)CCC2)N1CCOCC1
>57 | i | O=C(Oc1ccc2c(c1)OCO2)c1ccncc1
>57 | i | O=C(CSc1nccn1-c1ccc(F)cc1)Nc1ccc2c(c1)OCO2
>57 | i | COc1cc2c(cc1OC)C(C(=O)Nc1ccc3c(c1)OCCO3)C1c3ccccc3CCN1C2=O (stereo not given)
. | i | Fc1ccc(C2CC(c3ccccc3)Nc3ncnn32)cc1 (stereo not given)
>57 | i | COc1ccc(CCNC(=O)Cn2c(=O)cnc3ccccc32)cc1
. | i | O=C(c1nnc(Cc2ccc(Cl)cc2)o1)N1CCc2ccccc2C1
>57 | i | COc1ccc(O)c(-c2c(-c3ccc(Cl)cc3)n[nH]c2C)c1
i | i | CCOc1ccc2cc(C#N)c(SCC(=O)N3CCCC3)nc2c1
>26 | . | CN1CCc2c(n(CC(O)CN3C(=O)c4ccccc4S3(=O)=O)c3ccccc23)C1=O (stereo not given)
. | i | COc1ccc(Cl)cc1NC(=O)c1cnc2n(c1=O)CCS2
? | i | Cc1ccccc1NS(=O)(=O)c1ccc2[nH]cc(C(=O)NCCCN3CCOCC3)c(=O)c2c1
. | i | COc1cccc(Nc2ncc3nc(-c4cn(C)c5ccccc45)c(=O)n(CCC#N)c3n2)c1
>57 | i | O=C(NCc1ccncc1)Nc1ccc(F)cc1
>57 | i | CN(CC(=O)Nc1sccc1C#N)C1CCCCC1
>57 | i | Cc1noc(C)c1COC(=O)c1cccc(S(=O)(=O)N2c3ccccc3CC2C)c1 (stereo not given)
>26 | . | COCCNC(=O)c1c(N)n(/N=C/c2cccs2)c2nc3ccccc3nc12
. | i | COc1cccc(S(=O)(=O)NCc2ccc(C(=O)NCc3ccco3)cc2)c1
>57 | i | O=C(NCCCO)c1nc2ccccc2s1
. | i | c1ccc(-c2noc(CN3CCN(c4ccccc4)CC3)n2)cc1
. | i | Cc1ccc(-c2nc(CS(=O)CC(=O)NCCN3CCOCC3)c(C)o2)cc1 (stereo not given)

The list goes on.
PK Bst | YjeE inh | canonical_smiles
>57 | i | O=C(Nc1cccnc1)c1ccccc1Oc1ccccc1
>57 | i | CC(C)CCNC(=O)C1CCN(c2nc3ccccc3o2)CC1
>57 | i | COc1ccc(CC(CC(=O)O)C(=O)Nc2ccccc2)cc1 (stereo not given)
>57 | i | CCNc1nc(NC(C)(C)C)nc(N(C#N)CC)n1
. | i | O=[N+]([O-])c1ccc(Cl)c(CNc2ncnc3c2ncn3[C@@H]2CCCCO2)c1
>57 | i | COc1ccc(/C=N/n2cnnc2)cc1COc1ccccn1
>57 | i | O=C(OCc1nnc(-c2ccccc2)o1)c1ccc2c(c1)OCO2
>57 | i | CCCCSc1nnc(-c2cc(Br)ccc2N)c(=O)[nH]1
. | i | CNc1ncncc1-c1ccccc1CN(C)C
>57 | i | OC(CN1CCN(c2ccccc2)CC1)c1c[nH]c2ccccc12 (stereo not given)
. | i | O=C(c1c(O)c2ccc(Cl)cc2[nH]c1=O)C1CC1
>57 | i | Cc1ccc(S(=O)(=O)N2CCN(C(=O)CSc3nnc(-c4ccco4)o3)CC2)cc1
>57 | i | CC(NC(=O)c1csc2ccccc12)C1CCCO1 (stereo not given)
. | i | CCC/C=C(\CCC)C(NC(=O)Cc1ccccc1)c1ccc(C(=O)OC)cc1 (stereo not given)
>57 | i | COc1cc2[nH]c(=S)nc(NCC3CCCO3)c2cc1OC (stereo not given)
>57 | i | Nc1nnc(SCC(=O)NCc2ccc3c(c2)OCO3)s1
>57 | i | CCOC(=O)CSc1nnc(-c2ccco2)n1-c1ccc(C)cc1
>57 | i | CCS(=O)(=O)N1CCCC(C(=O)NCCN2CCC(Cc3ccccc3)CC2)C1 (stereo not given)
>57 | i | CSc1nnc(-c2ccccc2Cl)n1N
i | i | O=C(CSC1=NCCS1)N1CCc2ccccc21
>57 | i | C(=C\CSc1ncn[nH]1)/CSc1ncn[nH]1
>57 | i | Cc1ccc(NC(=O)COC(=O)C2=COCCO2)cc1
. | i | COc1cccc(C2=NOC(C(=O)N3CCN(C(=O)c4ccco4)CC3)C2)c1 (stereo not given)
>57 | i | O=C(CN1CCOCC1)Nc1ccc(NC(=O)CN2CCOCC2)c(Cl)c1
>57 | i | CN(c1ccc(C(=O)NCc2ccc3c(c2)OCO3)cc1)S(C)(=O)=O
>57 | i | Cn1c(CN2CCOCC2)c(C#N)c2ccccc21
>57 | i | O=C(CSc1oc(-c2ccccc2)nc1S(=O)(=O)c1ccc(F)cc1)NCC1CCCO1 (stereo not given)
>57 | i | COc1cc(NS(=O)(=O)c2ccc(C)cc2C)cc(OC)c1OC
>57 | i | Cc1ccc(S(=O)(=O)NCC(C)NS(=O)(=O)c2ccc(C)cc2)cc1 (stereo not given)
. | i | COCCNc1nc(-c2ccoc2)nc2ccccc12

Following part.
PK Bst | YjeE inh | canonical_smiles
>57 | i | CS(=O)(=O)N1CCN(c2nc3ccccc3s2)CC1
i | i | CCOc1ccccc1N1CCN(S(=O)(=O)c2ccc(F)c(F)c2)CC1
>57 | i | Cc1ccccc1-n1nc2c(c1NC(=O)c1cc3ccccc3oc1=O)CS(=O)(=O)C2
. | i | Cc1cccc2c1N(CC(=O)OC(C)C)C(=O)C2=O
>57 | i | COCCn1c(SCc2ccc(C(=O)OC)o2)nc2ccccc2c1=O
>57 | i | COC(=O)c1ccc(OCC2c3cc(OC)c(OC)cc3CCN2C(=O)C2CC2)cc1 (stereo not given)
>57 | i | N#CC1=C2C=CC=CN2CC1=O
>57 | i | COc1ccc(N(C)C(=O)CCS(=O)(=O)c2cccc3nonc23)c(OC)c1
>57 | i | CCCCN(CC)C(=O)CSc1cc(=O)n(C)c2ccccc12
>57 | i | CCOC(=O)/C=C1\SCC(=O)N1Cc1ccc(Br)cc1
>57 | i | CCCCn1nnnc1SCC(=O)Nc1ccc2c(c1)OCCO2
>57 | i | c1ccc(CNCCN2CCNCC2)nc1
. | i | Cc1c(Cl)cccc1NC(=O)CN1C(=O)CSc2ncccc21
>57 | i | COCCSc1ccccc1C(=O)N1CCCC1
>57 | i | CCN(C(=O)c1ccccc1Cl)c1ccccc1
. | i | COc1ccc(C[C@H](O)CN2CCOCC2)cc1
>57 | i | O=C(NC1=NCCS1)c1cc(-c2ccccc2)nn1-c1ccccc1
>57 | i | Cc1ccc(CN2C(=O)CCC2C(=O)NC2CC2)cc1 (stereo not given)
>57 | i | O=C(Nc1ccccc1O)c1cc(S(=O)(=O)N2CCOCC2)ccc1Cl
. | i | COc1ccc(-n2c(O)c(/C=N/n3cnnc3)c3ccccc3c2=O)cc1
>57 | i | CCOC(=O)C(C(C)=O)c1c(Br)c(O)c(O)c2c(C(=O)c3ccc(C)cc3)coc12 (stereo not given)
>57 | i | Cc1ccc(CNC(=O)Cn2ccc3ccccc3c2=O)o1
>57 | i | O=C(NC1CCCC1)C1CCCN(S(=O)(=O)c2ccc(-n3cnnn3)cc2)C1 (stereo not given)
>57 | i | Cc1nc2sc3c(c2c2nc(-c4ccco4)nn12)CCCC3
. | i | COc1ccccc1CN1CC[C@@]2(CCCN(C(=O)c3cccn3C)C2)C1
>57 | i | Nn1c(SCC(=O)Nc2ccc(Oc3ccccc3)cc2)nnc1C1CC1
>57 | i | NC(=O)c1cccc2c(=O)oc3ccccc3c12
>57 | i | CCOc1ncccc1C(=O)OCc1ccc(C(=O)OC)o1
>57 | i | CSc1nc2ccccc2n1CC(=O)Nc1c(C)n(C)n(-c2ccccc2)c1=O
. | i | COC(=O)C1(CC(C)C)C=C2C(=C(C(C)C)C(=O)C2C)CN1 (stereo not given)

Molecules above with a Cl atom (14):
PK Bst | YjeE inh | canonical_smiles
>57 | i | O=C(COC(=O)c1ccc2c(c1)OCO2)NCc1ccc(Cl)cc1
. | i | Cc1c(Cl)cccc1N(CC(=O)NC1CCCCC1)S(C)(=O)=O
. | i | O=C(c1ccccc1)N1CCN(c2ccc(Cl)cc2)CC1
>57 | i | CC(Oc1ccccc1Cl)C(=O)N(Cc1ccco1)C1CCS(=O)(=O)C1 (stereo not given)
. | i | O=C(c1nnc(Cc2ccc(Cl)cc2)o1)N1CCc2ccccc2C1
>57 | i | COc1ccc(O)c(-c2c(-c3ccc(Cl)cc3)n[nH]c2C)c1
. | i | COc1ccc(Cl)cc1NC(=O)c1cnc2n(c1=O)CCS2
. | i | O=[N+]([O-])c1ccc(Cl)c(CNc2ncnc3c2ncn3[C@@H]2CCCCO2)c1
. | i | O=C(c1c(O)c2ccc(Cl)cc2[nH]c1=O)C1CC1
>57 | i | CSc1nnc(-c2ccccc2Cl)n1N
>57 | i | O=C(CN1CCOCC1)Nc1ccc(NC(=O)CN2CCOCC2)c(Cl)c1
. | i | Cc1c(Cl)cccc1NC(=O)CN1C(=O)CSc2ncccc21
>57 | i | CCN(C(=O)c1ccccc1Cl)c1ccccc1
>57 | i | O=C(Nc1ccccc1O)c1cc(S(=O)(=O)N2CCOCC2)ccc1Cl

Next part:
PK Bst | YjeE inh | canonical_smiles
>57 | i | Cc1onc(-c2ccccc2)c1C(=O)Nc1nc(-c2ccc(F)c(F)c2)cs1
>57 | i | O=C(NCCCN1CCN(c2cccc(Cl)c2)CC1)C1CCC(=O)N1Cc1ccccc1Cl (stereo not given)
>57 | i | COc1ccccc1-n1c(SCC(=O)N2CCOCC2)nc(O)c(Cc2ccccc2)c1=O
>57 | i | COc1ccc(N(C(=O)Cn2nnc3ccccc32)C(C(=O)NCc2ccco2)c2ccc(C)o2)cc1 (stereo not given)
. | i | Cn1c(C(=O)NCc2cccs2)cc2c(=O)n(C)c3ccccc3c21
>57 | i | CCCS(=O)(=O)N1CCC(C(=O)NCCCN(CC)c2cccc(C)c2)CC1
>57 | i | COc1ccc(-n2cnnc2SCc2ncc(-c3ccccc3)o2)cc1

Bioassay records (PubChem)

The list is partial, so the mix of outcomes need not match the whole.
